Env fusion inh: blocks HIV Env-driven cell-cell fusion; HeLa-JRFL Env/CEM21 cell fusion, luciferase; inhibition, % at 12.3 µM; actives 1.1% (n = 360,000); AID 651610;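 active means mean replicate inhibition score of at least 50 and every replicate individually at or above 50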;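 further: 0% = plate neutral controls and 100% = maraviroc near 300 nM; one replicate is shown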
MT1-MMP act inh: blocks activation of human MT1-MMP | HT1080 RFP-PRO-GFP cells, GFP/RFP ratio fluorescence, overnight; percent of plate control window, DMSO zero | actives 0.061% (n = 360,000) | GFP/RFP ratio change, % at 20 µM | AID 651647 | P50281;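 active means GFP/RFP ratio change of at least 30% with cell ATP level not reduced by more than half and red fluorescence within 50% of control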; further: strong numbers were not always called active
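Assay system: HT1080 RFP-PRO-GFP cells. Benchmarks: DMSO vehicle wells and RFP-L50D-GFP reporter cell wells. Times: overnight cell settling, then overnight compound exposure, 37 °C, 5% CO2. Compound: 20 µM single dose, 1% DMSO. Read-out basis: GFP/RFP fluorescence ratio.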
PABP FP inh: PABP-poly(A) binding inhibition | PABP-poly(A) RNA binding, fluorescence polarization | inhibition, % at 35 µM | actives 1% (n = 290,000);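 active means 50% or more with normal probe brightness, or confirmed in later tests; about a fifth of its hits are not listed in these tables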;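 further: calls also rest on retests at 20 µM and on dose response follow-up; controls were probe without protein and protein plus probe with vehicle; some compounds called inactive have numbers as strong as hits; many hits fall short of the cut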
Target sequence (P11940 whole entry, looked up): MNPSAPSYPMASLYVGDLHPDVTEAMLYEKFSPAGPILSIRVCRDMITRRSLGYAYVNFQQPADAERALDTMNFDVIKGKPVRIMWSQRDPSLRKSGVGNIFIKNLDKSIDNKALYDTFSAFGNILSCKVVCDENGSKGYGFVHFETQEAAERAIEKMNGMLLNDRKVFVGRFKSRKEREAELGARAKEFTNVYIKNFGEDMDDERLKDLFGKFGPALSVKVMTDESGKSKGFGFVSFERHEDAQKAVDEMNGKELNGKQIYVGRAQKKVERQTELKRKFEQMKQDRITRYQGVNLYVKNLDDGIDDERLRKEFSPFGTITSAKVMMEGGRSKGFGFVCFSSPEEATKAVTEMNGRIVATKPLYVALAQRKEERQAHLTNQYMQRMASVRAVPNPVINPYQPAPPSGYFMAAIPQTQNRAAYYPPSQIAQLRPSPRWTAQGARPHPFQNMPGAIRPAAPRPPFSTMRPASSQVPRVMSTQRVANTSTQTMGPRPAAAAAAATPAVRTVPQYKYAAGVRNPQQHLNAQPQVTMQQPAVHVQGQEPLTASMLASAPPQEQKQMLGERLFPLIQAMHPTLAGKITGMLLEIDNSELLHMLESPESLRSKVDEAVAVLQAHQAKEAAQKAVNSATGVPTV
Rce1 inh: yeast Ras-converting enzyme inhibition; calls only; actives 0.27% (n = 290,000); Q03530; yeast membranes, quenched prenylated peptide cleavage fluorescence;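 active means fall in fluorescence gain of 50% or more versus controls, with final raw signal at or below 3038400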;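 further: plate controls were neutral control wells for no effect and wells lacking membranes for full effect; tested at 10 µM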
CSC inhib: cancer stem cell inhibition; cancer stem cell-like cells viability, luminescence; inhibition, % at 7.5 µM; actives 1.1% (n = 300,000); AID 2717;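 active means mean at 75% or more and at least half the replicates too; tested in HMLE shEcad cells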;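 further: 0% = median of negative and 100% = median of positive control wells; the first replicate is given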
eIF4H inh: inhibitors of RNA binding by human eIF4H; Q15056; eIF4H fluorescence polarization binding assay; inhibition, % at 35 µM; actives 0.94% (n = 290,000); AID 2012;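 active means 50% or more with normal probe brightness, or confirmed in later tests; about a fifth of its hits are not listed in these tables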;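 further: calls also rest on retests at 20 µM and on dose response follow-up; 0% = protein and probe with vehicle and 100% = probe without protein; strong numbers were not always called active; many hits fall short of the cut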
UUG fidelity: modulators of start codon recognition fidelity in yeast; S. cerevisiae UUG-firefly luciferase reporter, luminescence/redox ratio; activity score, % at 18.7 µM; actives 0.13% (n = 350,000); AID 602363;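 active means replicate mean at a twofold rise or more, about +100% in these data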;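 further: firefly luciferase made from a UUG start codon reports start codon fidelity; reporter light over untreated wells divided by growth signal over untreated wells; some hits fall short of that in this replicate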
eIF4H inh retest: recorded beside eIF4H inh, whose call it bears; inhibition, %; compound at 20 µM; confirmation average;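 mean of two retest wells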
PABP FP inh retest: second read-out of PABP FP inh, no call of its own (marks repeat the call); inhibition, %; compound at 20 µM; confirmation repeats;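 mean of two retest wells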
MT1-MMP act inh RFP: also measured in MT1-MMP act inh; calls as there; RFP signal change, %; measured here: RFP expression control read;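 0 = vehicle wells; hits needed this value within 50% of zero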
Starred values were filed as active, the others as inactive; i = inactive; / = no result given; & = joins results of further samples; [ ] = dose if it differs, or a comment. This is a subset, so the mix of outcomes need not match the whole.

SMILES	Env fusion inh	MT1-MMP act inh	MT1-MMP act inh RFP	PABP FP inh	Rce1 inh	CSC inhib	eIF4H inh	UUG fidelity	others
COc1cc(/C=C(\NC(=O)c2cc(OC)c(OC)c(OC)c2)C(=O)NC(C(=O)O)c2ccccc2)cc(OC)c1OC (stereo unspecified)	-1	0	1	7	i	8	-3	2
CN1CCN(C(=O)C2=C[C@@H](c3csc4ccccc34)C[C@@H](OCCCCO)O2)CC1	16[16.7 µM]	-3	-1	2	i	-10	12	7&-11
Cc1ccc([N+](=O)[O-])cc1NC(=S)NC(=O)c1c(Cl)cnn1C	-23	-5	4	-5	i	/	0	-11
O=C(CCn1c2c(c3ccccc31)CCCC2)NNC(=O)c1ccc([N+](=O)[O-])cc1	14	-1	3	-15	i	10	-10	/
CC1(C)C(=O)OC(C(=O)c2ccccc2)C2(CCCCC2)C1=O (stereo unspecified)	45	-2	1	-10	i	-14	-10	-15
CCc1ccc(CN2CCC(CO)(CC3CCCCO3)CC2)o1 (stereo unspecified)	-3	-3	6	4	i	-3	-1	7
CC1CCN(C(=S)c2cn(Cc3ccccc3F)c3ccccc23)CC1	30	-15	-12	-6	i	-5	-10	-22
COc1ccc(CN(Cc2ccccn2)S(=O)(=O)c2ccc(-n3cnnn3)cc2)cc1	/	3	2	7	i	-6	3	-6
COc1ccccc1CN1C[C@@H]2C[C@@H](c3ccc4nsnc4c3)N3CCC[C@@]23C1=O	21	-1	-5	6	i	-6	-12	20
CC(=O)Nc1ccc(CCc2nc3ccccc3[nH]2)cc1	9	4	-4	-5	i	-10	0	-2
COc1ccc(C(=O)NCc2nnc(SCC(=O)Nc3nnc(C)s3)o2)cc1OC	-46	-1	4	11	i	8	0	-31
CCCCc1cc(=O)oc2cc(OCC(=O)NCC3CCC(C(=O)O)CC3)ccc12 (stereo unspecified)	/	-1	2	5	i	-5	-5	-24
COc1cc(-c2cc(C(=O)O)c3cc4ccccc4cc3n2)cc(OC)c1OC	14	11	2	/	/	/	/	-12
CC(NC(=O)CNC(=O)c1sc2ccccc2c1Cl)c1ccc(S(N)(=O)=O)cc1 (stereo unspecified)	-1	0	0	/	i	5	/	0
O=C(CN1CCC(O)(c2ccccc2)CC1)Nc1ccc2c(c1)OCCO2	-1	0	3	-3	i	-5	-1	-25
CCCNC(=O)c1cc2cc([N+](=O)[O-])ccc2s1	-18	-5	-10	-2	i	16	-17	/
COc1ccc(C(=O)O)cc1NC(=S)NC(=O)CSc1ccc(Cl)cc1	-7	0	2	-8	i	-1	-13	-31
O=[N+]([O-])c1ccc(NC(=S)N2CCN(c3ccc(F)cc3)CC2)cc1	/	0	-7	-4	i	12	-6	-25
CCOc1ccc2[nH]cc(C(=O)O)c(=O)c2c1	/	1	3	3	i	-7	-4	/
COC(=O)c1cc2c(n(Cc3ccccc3)c1=O)CCCC2=O	10	-1	4	/	/	/	/	2
Cc1ccc2nc(N3C(=O)C(O)=C(C(=O)c4ccc(C)o4)C3c3ccco3)sc2c1 (stereo unspecified)	-20	-3	2	/	/	39	/	-11
O=C(NCC1CCCO1)c1nn2c(C(F)(F)F)cc(-c3cccs3)nc2c1Cl (stereo unspecified)	10	-5	4	-11	i	-9	-12	-39
Cc1cc(=O)n(Cc2ccccc2)c2ccccc12	-9	2	2	14	i	-12	0	-8
COc1ccccc1CNC(=O)COC(=O)c1cc(C)oc1C	-10	3	1	-15	i	-18	9	/
COc1ccccc1N1C(=O)CC(N2CCN(c3ccc(F)cc3)CC2)C1=O (stereo unspecified)	19	5	4	9	i	-9	-8	5
CN(CCOc1ccccc1)CC(=O)Nc1cccc(C#N)c1	7	0	-1	0	i	-8	-12	-9
COc1cc(C(=O)Nc2sc(C(=O)N3CCOCC3)c(C)c2C#N)cc(OC)c1OC	/	-1	0	4	i	-9	-1	-14
O=c1oc2ccc(C#CC3(O)CCCCC3)cc2cc1-n1cc(-c2ccccn2)nn1	-6	-1	3	/	/	/	/	-16
CSCCC1NC(=O)N(CC(=O)N2N=C(c3ccc(Cl)cc3)CC2c2ccco2)C1=O (stereo unspecified)	9	2	-4	4	i	-2	-4	/
COC1=CC(=O)[C@@]2([C@@H]1O)[C@@H](Cl)C[C@]13C(OC)=C(OC)C(=O)C[C@]21CCN3C	-18	-1	0	/	/	/	/	-26

Among those listed so far, these have two or more sulfur atoms:
SMILES	Env fusion inh	MT1-MMP act inh	MT1-MMP act inh RFP	PABP FP inh	Rce1 inh	CSC inhib	eIF4H inh	UUG fidelity	others
COc1ccc(C(=O)NCc2nnc(SCC(=O)Nc3nnc(C)s3)o2)cc1OC	-46	-1	4	11	i	8	0	-31
CC(NC(=O)CNC(=O)c1sc2ccccc2c1Cl)c1ccc(S(N)(=O)=O)cc1 (stereo unspecified)	-1	0	0	/	i	5	/	0
COc1ccc(C(=O)O)cc1NC(=S)NC(=O)CSc1ccc(Cl)cc1	-7	0	2	-8	i	-1	-13	-31

Next structures.
SMILES	Env fusion inh	MT1-MMP act inh	MT1-MMP act inh RFP	PABP FP inh	Rce1 inh	CSC inhib	eIF4H inh	UUG fidelity	others
COc1ccc2[nH]c3c(=O)n(CCN4CCOCC4)cnc3c2c1	0	1	6	-11	i	-14	-10	-13
CCOc1cc(-c2c(C)c(C)nc(N)c2C#N)ccc1O	/	3	-3	-5	i	9	0	-6
CCn1cc(C(=O)NC(C)CCc2ccccc2)c(=O)c2cc(S(=O)(=O)N(C)C)ccc21 (stereo unspecified)	20	1	-2	14	i	-9	-5	-3
Cc1ccc(N2CC(C(=O)Nc3c4c(nn3C(C)(C)C)CS(=O)(=O)C4)CC2=O)cc1C (stereo unspecified)	-3	0	1	6	i	3	-6	-17
CC(=O)N1c2ccc(S(=O)(=O)NCC3CCC(C(=O)NCc4ccc(C)o4)CC3)cc2CC1C (stereo unspecified)	10	0	-7	-3	i	-14	14	-25
CCCC(C(=O)NC1CCCC1)N(Cc1ccccc1Cl)C(=O)c1snc(C(N)=O)c1N (stereo unspecified)	1	-5	0	1	i	1	7	0
Cc1c(CCC(=O)O)c(=O)oc2c(C)c(OCc3cc4c(cc3Cl)OCO4)ccc12	-2	0	3	9	i	3	42	-2
CC(C)OC(=O)CSc1nc(N)c(C#N)c(-c2ccco2)c1C#N	/	-3	-3	13	i	16	-1	10
O=C(CN(C1CCCCC1)S(=O)(=O)c1ccc(Cl)cc1)NCc1cccnc1	-12	4	2	-10	i	-18	-11	-20
CN(C)CCCN=Cc1c(-c2ccccc2)[nH]n(-c2nc3ccccc3s2)c1=O	-23	8	3	-3	i	-20	-2	/
NC(=O)c1ccc(NC(=O)COC(=O)c2n[nH]c3ccccc23)cc1	0	2	0	/	/	-14	/	-5
CC#CCCCC(=O)Nc1cc(OC)nc(OC)n1	-18	4	5	-7	i	-5	-8	-7
Cc1ccccc1S(=O)(=O)Cc1ccc(C(=O)N(C)C2CCCCC2)o1	32	0	2	5	i	7	-11	6
Cc1cc(C)c2c(=O)n(CC(=O)NC3CCCC3)sc2n1	6	-1	4	0	i	-7	-4	/
O=C(Nc1ccccc1C(=O)NCCCN1CCOCC1)c1ccc(F)cc1F	-21	-3	0	12	i	6	-10	-16
COc1cc(-c2nnc3n2CCCCC3)cc(OC)c1OC	-1	2	-2	5	i	-10	-6	-6
O=C(c1ccc(F)cc1F)N(Cc1ccccn1)Cc1ccco1	-7	-1	3	22	/	-19	-14	-9
O=C1SC(c2ccccc2)=N/C1=C/c1ccco1	-2	-18	2	18*	i	-13	50*	-7	eIF4H inh retest=94*;PABP FP inh retest=55*
CC(=O)c1ccc(NC(=O)CO/N=C(\C)c2cccs2)cc1	-17	-1	-1	-5	i	-16	-7	/
CCCN(CC(=O)Nc1ccc(Cl)cc1Cl)C(=O)c1ccc(=O)[nH]c1	1	1	2	-2	i	-11	-13	3
O=S1(=O)CC(N2CCCC2)CN1CCc1ccccc1 (stereo unspecified)	-9	5	3	/	/	/	/	-6
Nc1nc(-c2ccccc2)c(-c2ccccc2)s1	/	-5	-3	4	i	8	1	-7
CCS(=O)(=O)N1CCC2(CC1)OCCN2S(=O)(=O)c1ccc(C)cc1	-2	1	-4	/	i	-3	/	0
Cc1ccc(S(=O)(=O)NC(C)(C)CSc2nnc(N)s2)cc1	/	1	1	4	i	-8	11	-12
CC(CN1CCCCC1)NC(=O)c1cccs1 (stereo unspecified)	3	0	7	0	i	-6	8	-3
O=C(NNS(=O)(=O)c1ccccc1)c1cccs1	-43	-3	2	13	i	0	3	-9
Cn1c(-c2cccc(Br)c2)cnc1NCc1cccnc1	4	6	6	1	i	7	-1	0
COc1cc(/C=N/NC(=S)Nc2cccnc2)cc(OC)c1O	13	3	1	-2	i	-9	-3	/
O=C(COc1cccc2c1CCNC2=O)Nc1cccc(C(F)(F)F)c1	/	3	-2	/	i	-9	/	6
Cc1c(C(=O)N2CCN(S(=O)(=O)c3ccc(F)cc3)CC2)oc2ccccc12	/	-2	2	/	i	-13	/	-25
O=C(Nc1cccc(F)c1)c1ccc(S(=O)(=O)N2CCCC2)cc1	18	1	-4	8	i	-4	0	-3
CN=C1S/C(=C\c2ccc(OCC(=O)OC)c(OC)c2)C(=O)N1C	-70	-1	0	1	i	10	0	2
COC(=O)c1c[nH]c(=S)n1Cc1ccccc1	17	2	2	/	/	/	/	-23
Cc1ccccc1OCCSc1nnc(-c2cccnc2)n1N	2	3	3	-11	i	-11	1	/
CCOC(=O)CS(=O)(=O)c1nc(-c2ccc(F)cc2)cc(C(F)(F)F)n1	/	-8	-7	5	i	99*	6	-29
NC(=O)NCc1cccnc1	10	-3	-2	2	/	-4	-3	/
CCOC(=O)c1c(C)[nH]c(C(=O)COC(=O)C23CC4CC(CC(Cl)(C4)C2)C3)c1C	-13	-4	-10	-5	i	-10	-1	-16
CCC(C)c1ccc(OCC(=O)Nc2ccc3[nH]c(=O)[nH]c3c2)cc1 (stereo unspecified)	3	3	7	2	i	-4	6	3
CCCCNC(=O)COC(=O)CCC(=O)c1ccc(F)cc1	-4	4	3	-6	i	-7	-2	10
O=C(Cc1ccc(Cl)cc1)Nc1cccc(S(=O)(=O)Nc2ccccc2F)c1	6	1	0	-11	i	9	-9	/
COc1ccc(S(=O)(=O)Nc2ccc3c(c2)[C@H]2C[C@H](CC(=O)NCC4CC4)O[C@@H](CO)[C@H]2O3)cc1	-15	6	2	/	/	/	/	-2
CCOc1ccccc1-n1nnnc1SCC(=O)NC(=O)Cc1ccccc1	-8	-2	2	/	/	/	/	-10
OC(c1ccc(F)cc1)c1ncc(-c2cccc3ccccc23)[nH]1 (stereo unspecified)	-28	1	1	/	/	/	/	-8
O=C(c1ccc(F)cc1)N(NC(=O)C(O)(c1ccccc1)c1ccccc1)c1ccccc1	9	2	3	-2	/	-8	-19	/
Cc1cc(NC(=O)Cc2ccccc2)no1	-75	-2	-5	-3	i	14	6	/
Cc1nc(CS(=O)(=O)c2ccccn2)sc1C(=O)NNC(=O)c1ccc(Cl)cc1	0	4	2	-1	i	-9	-7	-14
CC(O)(c1ccc(F)c(F)c1)c1nc(-c2cc(F)cc(F)c2)cs1 (stereo unspecified)	15	7	-4	/	/	/	/	-11
O=C(Cn1cc(C(F)(F)F)ccc1=O)NC1CCCC1	/	4	5	/	/	-14	/	-4
Cc1ccc(S(=O)(=O)N/N=C/c2ccc(O)c(O)c2)cc1[N+](=O)[O-]	12	-2	-4	33	i	0	-3	-1
O=S(=O)(c1cccs1)N1CCN(c2ccccn2)CC1	17	5	2	-1	i	-2	4	-19
COc1cc(/C=N/N(C)C2=NS(=O)(=O)c3ccccc32)cc(OC)c1OC	26	0	1	24	i	-2	2	-13

Assay outcomes deposited in PubChem by several laboratories.
